Choline anaer gr: blocks anaerobic gram-negative growth on choline; Gram-negative bacterium anaerobic choline minimal medium, absorbance growth; hits give low values; many inactives read as strong as hits in the columns shown; calls only; 55,000 tested, 0.2% active; AID 1963822;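 active means growth z-score on choline under -2 at 7 or 20 h with little or no fall on glycerol, limits in tiers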;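 further: stock transfer was 300 nL into about 50 µL; the organism is E. coli; final concentration not given here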
Choline anaer gr early: further read-out of Choline anaer gr, marked with its call; z-score; measured here: choline growth z-score, timepoint 1;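 score of optical density at 7 h as mean of two plates; lower means less growth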
* marks the source's active call; other numbers are inactive results; i = inactive; & = joins results of further samples. These rows are one share of the data; count on the stated rates, not on these rows.

SMILES | Choline anaer gr | Choline anaer gr early
Cc1ccccc1-c1nc2scc(CCNC(=O)COc3ccc(Cl)cc3)n2n1 | i | 0.09
CCC(C)Cn1c(CN2CCCCC2)nc2ccccc21 (stereo not given) | i | -0.4
CCOC(=O)c1cn[nH]c1S(=O)(=O)N1CCOCC1 | i | -0.5
Cc1ccccc1COCc1nn(C)c2c1CN(C(=O)c1ccc3c(c1)OCO3)CC2 | i | -1.11
O=C(NCc1ccc(Cl)cc1)c1ccc(SCCN2CCCCC2)nc1 | i | -5.38
CC(C(=O)O)c1ccc2c(c1)Cc1cccnc1O2 (stereo not given) | i | 0.06&0.24&0.47
CCOC(=O)c1[nH]c(C)c(CCC(=O)N2CCCC(C(=O)N3CCOCC3)C2)c1C (stereo not given) | i | 0.19
CCc1cc(C2CCCN2S(=O)(=O)c2ccc(F)c(Cl)c2)on1 (stereo not given) | i | -0.05
COc1cccc(-c2[nH]ncc2CN2CCCC2c2cc(C(C)C)on2)c1 (stereo not given) | i | 0.33
CCN(CC)CCNC(=O)c1cc(Br)c(N)cc1OC | i | 0.59
O=C1COc2ccc(S(=O)(=O)N3CCCC(C(=O)NC4CC4)C3)cc2N1 (stereo not given) | i | 0.15
O=C(NCc1ccccc1)c1cc2c(Cl)ccc3c2n1CCO3 | i | 1.31
O=C(NC1CCCC1)N1CCCC1c1ccccc1Cl (stereo not given) | i | -2.15
Cc1ccc(Cl)cc1NS(=O)(=O)c1ccc2onc(C(=O)N3CCCC3)c2c1 | i | 0.58
CC(C)Cc1cc(-c2nn3c(COc4ccc(Br)cc4)nnc3s2)n[nH]1 | i | 0.29
Cc1cc(Nc2ccc(NS(=O)(=O)c3ccc4c(c3)OCCO4)cc2)nc(NC2CCCCC2)n1 | i | -0.9
CC1CCN(S(=O)(=O)c2ccc3c(c2)CCC(=O)N3CC(=O)N(C)C2CCCCC2)CC1 | i | 0.36
Cc1ccc(-c2noc(-c3cn(Cc4ccc(N)cc4)cn3)n2)cc1 | i | 1.14
Cc1cc(C)c2c(-n3cccc3)nn(CCCC(=O)Nc3ccc(Cl)cc3C)c2n1 | i | 1
CC(C)NC(=O)C1CCCN(C(=O)c2nnc(C(=O)Nc3ccc4c(c3)OCO4)s2)C1 (stereo not given) | i | -1.73
O=C(CCc1nc(-c2ccc(S(=O)(=O)N3CCCCC3)cc2)no1)N1CCc2ccccc21 | i | 1.41
COc1ccc(S(=O)(=O)N(CC(=O)N2CCN(c3ccccc3OC)CC2)c2ccc(Cl)cc2)cc1 | i | 0.99
CCn1cc(C(=O)n2ccnc2)c2cc(S(=O)(=O)N(C)C)ccc21 | i | 0.23
CCN1C(=O)COc2ccc(-c3noc(CNC(=O)c4ccccc4)n3)cc21 | i | 0.35
O=C(Nc1ccc(Cl)cc1)Nc1ccc(-c2nnc(-c3ccccc3)o2)cc1 | i | -1.67
C=C(C)CSc1nc2sc3c(c2c(=O)n1CC(=C)C)CC(C)(C)OC3 | i | 0.53
CN1CCN(C(=O)c2ccc(Cn3c(=O)c4cccn4c4cccnc43)cc2)CC1 | i | -0.01
CC1CCCN(C(=O)Cc2noc3ccccc23)C1 (stereo not given) | i | 0.51
COc1ccc(C(=O)Nc2nc(-c3ccc(F)cc3)ns2)cc1 | i | -0.28
CC(C)c1ccccc1NS(=O)(=O)c1cc(-c2nc(C(C)(C)C)cs2)cs1 | i | 0.58

6 successive records from above, for reference:
SMILES | Choline anaer gr | Choline anaer gr early
O=C(Nc1ccc(Cl)cc1)Nc1ccc(-c2nnc(-c3ccccc3)o2)cc1 | i | -1.67
C=C(C)CSc1nc2sc3c(c2c(=O)n1CC(=C)C)CC(C)(C)OC3 | i | 0.53
CN1CCN(C(=O)c2ccc(Cn3c(=O)c4cccn4c4cccnc43)cc2)CC1 | i | -0.01
CC1CCCN(C(=O)Cc2noc3ccccc23)C1 (stereo not given) | i | 0.51
COc1ccc(C(=O)Nc2nc(-c3ccc(F)cc3)ns2)cc1 | i | -0.28
CC(C)c1ccccc1NS(=O)(=O)c1cc(-c2nc(C(C)(C)C)cs2)cs1 | i | 0.58

(further entries)
SMILES | Choline anaer gr | Choline anaer gr early
O=C(CCc1nc2ccccc2[nH]1)N1CCC(Cc2ccccc2)CC1 | i | 0.19
O=C(COc1ccccc1F)Nc1ccc2oc(-c3ccccc3F)nc2c1 | i | 1.53
CCOC(=O)c1c(NC(=O)CSc2nnc3[nH]c(=O)cc(C)n23)sc2c1CCCC2 | i | -0.4
Cc1ccc(S(=O)(=O)N2CCN(Cc3ccc4c(c3)OCO4)CC2)cc1C | i | 0.86
CC1CN(Cc2ccccc2)c2ccccc2NC1=O (stereo not given) | i | -1.37
CCc1nc(-c2csc(S(=O)(=O)N3CCCC(C(=O)NC4CC4)C3)c2)no1 (stereo not given) | i | 0.57
COc1cccc(CNC(=O)c2cc3c(s2)-c2c(C)nn(-c4ccccc4)c2CC3)c1 | i | 0.65
CCc1nnc2c3ccccc3nc(Nc3cc(Cl)ccc3OC)n12 | i | 0.24
CCOC(=O)C1CCN(c2cc3c(cc2NC(=O)NC(C)C)n(C)c(=O)n3C)CC1 | i | -1.42
CCCCc1nn2c(=O)cc(CN(Cc3ccc(C)cc3)CC(C)C)nc2s1 | i | 1.14
CCOc1ccc(NC(=O)c2oc3ccc(Cl)cc3c2C)c2cccnc12 | i | -0.74
COc1ccc(OC)c(C(=O)c2c(N)c(-c3nc(-c4ccccc4)cs3)c3ccccn23)c1 | i | -0.02
O=C(NCC1CCCO1)c1c(-c2ccccc2)nnc2ccccc12 (stereo not given) | i | -0.72
CCC(C(=O)N1CCN(c2cccc(OC)c2)CC1)N1C(=O)CCCc2ccccc21 (stereo not given) | i | -0.98
O=C(NC1CCCCC1)C1CCN(c2nccn3nc(-c4cccs4)cc23)CC1 | i | -0.33

Entries of single compounds as entered above. Order of values: Choline anaer gr	Choline anaer gr early
Record of CCc1nnc2c3ccccc3nc(Nc3cc(Cl)ccc3OC)n12 → i	0.24
Record of O=C(NCC1CCCO1)c1c(-c2ccccc2)nnc2ccccc12 (stereo not given) → i	-0.72
Record of COc1ccc(OC)c(C(=O)c2c(N)c(-c3nc(-c4ccccc4)cs3)c3ccccn23)c1 → i	-0.02

Of the compounds above, these contain an aryl thioether with sulfur outside any ring.
SMILES | Choline anaer gr | Choline anaer gr early
O=C(NCc1ccc(Cl)cc1)c1ccc(SCCN2CCCCC2)nc1 | i | -5.38
C=C(C)CSc1nc2sc3c(c2c(=O)n1CC(=C)C)CC(C)(C)OC3 | i | 0.53
CCOC(=O)c1c(NC(=O)CSc2nnc3[nH]c(=O)cc(C)n23)sc2c1CCCC2 | i | -0.4

Continuation.
SMILES | Choline anaer gr | Choline anaer gr early
CCc1nc(-c2ccc(N3CCN(C(=O)Cc4ccc(F)cc4)CC3)cc2)no1 | i | 0.68
Cc1cc(C)cc(S(=O)(=O)Nc2cc(C(=O)O)cnc2N(CC(C)C)CC(C)C)c1 | i | 0.12
CCc1cc(C(=O)N2CCN(C)CC2)no1 | i | 0.39
CCOC(=O)c1c(NC(=O)CN(c2ccccc2)S(=O)(=O)N(C)C)sc2c1CCCC2 | i | -0.28
O=C(COC(=O)CSc1nc2ccccc2n1Cc1ccccc1)Nc1ccc(Cl)cc1 | i | 1.32
c1cc2c3c(c1)c1c(n3CCNC2)CCCC1 | i | 0
Cn1cnc2c(-c3cccc(F)c3)csc2c1=O | i | -0.47
C=CCn1c(=O)c2sc(N3CCCCC3)nc2n(CC(=O)Nc2ccc3c(c2)OCO3)c1=O | i | 0.68
COc1ccc(NC(=O)Cc2ccc3nc(NC(C)=O)sc3c2)cc1Cl | i | 0.47
Cc1ccc(-c2nccc(Oc3ccc(C(=O)N(C)Cc4ccccc4)cc3)n2)cc1 | i | 3.22
C=CCn1c(=O)c(C(=O)Nc2nccs2)c(O)c2ccccc21 | i | 0.31
Oc1c(I)cc(Cl)c2cccnc12 | i | -2.44
CC1(C)C(=O)N(CC(=O)N2CCN(C3CCCCC3)CC2)c2ccccc21 | i | -0.19
O=C(O)c1cc(N2CCN(c3ccccc3F)CC2)nc2ccc(NS(=O)(=O)c3ccccc3)cc12 | i | -0.89
Cc1[nH]c(-c2nnc(C3CCC3)o2)c(C)c1S(=O)(=O)N1CCOCC1 | i | 0.27
COc1ccc(-c2cc3ncc(C(=O)c4cc(F)ccc4O)cn3n2)cc1 | i | 0.61
NS(=O)(=O)c1ccc(CCNC(=O)CCn2cnc3c([nH]c4ccc(F)cc43)c2=O)cc1 | i | 0.47
O=C1CC(c2cccc(Br)c2)c2cnn(-c3nc4ccccc4s3)c2N1 (stereo not given) | i | 1.02
Clc1ccc(N2CCN(c3ccc(-c4nc(-c5ccccc5)no4)nn3)CC2)cc1 | i | -1.6
CCc1ccc(-c2nc(-c3ccc4c(c3)[nH]c(=O)c(=O)n4C(C)C)no2)cc1 | i | 0.62
CCCCc1nnc2sc(COc3ccc(C)c(C)c3)nn12 | i | -2.05
CC(Sc1nnc2ccc3ccccc3n12)C(=O)Nc1ccc(F)cc1 (stereo not given) | i | -0.49
COC(=O)c1ccc(N2CCN(C)CC2)c(NC(=O)c2ccc(OC)c(OC)c2)c1 | i | 0.18
O=C(C1CCC1)N1CCC2(CC1)Nc1ccccc1-n1cccc12 | i | -0.73
CN(CCc1noc(COc2ccccc2)n1)C(=O)Nc1cccc(Cl)c1 | i | -0.84
CC1(C)C(=O)N(CC(=O)NC2CCCCC2)c2ccc(S(=O)(=O)N3CCCC3)cc21 | i | -0.11
CCN1CCN(c2nc3ncn(CC(=O)Nc4ccc(F)c(F)c4)c(=O)c3s2)CC1 | i | 0.35
COc1ccc(-n2ccc(=O)c(-c3nc(-c4ccccc4OC)no3)n2)cc1 | i | 0.77
CCOc1ccc(N2C(=O)N(Cc3cccc(Cl)c3)C3CS(=O)(=O)CC32)cc1 (stereo not given) | i | 2.29
Cn1cnc(S(=O)(=O)N2CCC(C(=O)Nc3ccc4c(c3)OCCO4)CC2)c1 | i | 0.01
CCOc1ccc(-c2noc(CSc3nc4cc5c(cc4c(=O)n3C3CCCC3)OCO5)n2)cc1 | i | 0.89
CCN(CC)CCNC(=O)C1CCN(c2ccnc(-c3ccc(C)cc3)n2)CC1 | i | 0
CCCn1c(=O)c(N2CCC(NC(=O)Nc3ccc(Cl)cc3)CC2)nc2ccccc21 | i | -0.06
Cc1nnc(-c2cccc(Cl)c2)nc1N1CCC2(CC1)OCCO2 | i | 0.91
O=C(CC1CCCC1)N1CCN=C1N1CCCC1 | i | -0.58
CC(C)(C)c1csc(-c2csc(S(=O)(=O)NC3CCCCCC3)c2)n1 | i | -0.3
CCCc1nnc(NC(=O)Nc2[nH]c(C)c(C(=O)OCC)c2C)s1 | i | -0.53
CCCN1CCN(C(=O)Cn2nc(N3CCN(c4ccccc4OC)CC3)ccc2=O)CC1 | i | -0.25
COc1ccc(C2C(C(=O)Nc3cccc(C)n3)c3ccccc3C(=O)N2c2ccc(OC)cc2)cc1 (stereo not given) | i | 1.13
O=S(=O)(c1ccc2c(c1)CCC2)N1CCCC1c1nc(-c2ccc(Cl)cc2)no1 (stereo not given) | i | -1.03
Cc1ccc(-c2cnnc(-n3nc(C)c4c3NC(=O)CC4c3ccccc3)n2)cc1 (stereo not given) | i | 0.26
CCOc1ccc(OCC(=O)Nc2cc(C)nn2-c2ncnc3c2cnn3-c2ccc(F)cc2)cc1 | i | -0.29
O=C1CC(C(=O)c2ccc3c(c2)OCO3)c2c(n[nH]c2-c2ccc(Cl)cc2)N1 (stereo not given) | i | 0.87
O=C(CC1CCCC1)N1CCC2(CC1)Nc1ccccc1-n1cccc12 | i | -0.68
Cc1nc(C)c(-c2nc(-c3ccc(-c4csc(C5CC5)n4)cc3)no2)s1 | i | -0.33
CC(C)c1ccc(OCC(=O)Nc2ccc3c(c2)NC(=O)CO3)cc1 | i | -0.05
O=S(=O)(NCc1cccn1Cc1ccccc1)c1ccccc1F | i | 0.22
Cc1sc(-c2cc(C(F)(F)F)on2)cc1S(=O)(=O)N1CCN(c2ccccc2)CC1 | i | 0.13
O=S(=O)(Nc1cccc2c1CCCC2)c1cc(-c2noc(C3CCC3)n2)cs1 | i | 1.36
CCOc1cccc(C2Nc3ccccc3-n3cc4c(=O)n(C)c(=O)n(C)c4c32)c1O (stereo not given) | i | -1.87
Cc1ccc(-c2nc(S(=O)(=O)c3ccc(C)cc3)c(N3CC(C)OC(C)C3)o2)cc1 (stereo not given) | i | -0.19
O=c1[nH]c2cc3c(cc2c(=O)n1Cc1nc(-c2ccccn2)no1)OCO3 | i | 1.08
Cc1ccnc(NC(=O)c2noc3c2CCCC3)c1 | i | 1.07
O=C(CN1C(=O)CCCc2cc(S(=O)(=O)N3CCCC3)ccc21)NCc1ccccc1Cl | i | 0.8
Cc1cc(C(=O)N2CCC(c3nc(C(=O)N4CCSCC4)c(C)o3)CC2)no1 | i | -1.43
CCn1c(CN2CCOCC2)nc2ccccc21 | i | -1.88
COc1ccc(-n2nc(C(=O)Nc3ccccn3)c3c4ccccc4n(C)c3c2=O)cc1 | i | 0.12
CCOc1ccc(S(=O)(=O)N2CCN(c3ccccc3OC)CC2)cc1-c1nc(CC)no1 | i | 0.18
CCCCN(C)c1ccc2nnc(CCc3nc(-c4ccc(Br)cc4)no3)n2n1 | i | 2
O=C(CSc1ccccc1)Nc1cc(F)c2nc(N3CCOCC3)ccc2c1 | i | -0.13
New compounds follow:
SMILES | Choline anaer gr | Choline anaer gr early
Cn1c(SCC(=O)N2CCCC2)nc2c(-c3ccccc3)csc2c1=O | i | -0.33
COc1ccc2[nH]c3c(c2c1)CCN(C(=O)c1ccc(C)cc1)C3c1ccc(F)cc1 (stereo not given) | i | -1.2
CCC(=O)N1CCCC(C)(C(=O)NCc2cccc(F)c2)C1 (stereo not given) | i | 0.05
CCC(=O)Nc1cnc(N2CCN(C(c3ccccc3)c3ccccc3)CC2)c(C(=O)O)c1 | i | -0.97
O=S(=O)(c1ccc(-c2noc(COc3ccc(Cl)cc3)n2)cc1)N1CCCC1 | i | 0.18
COC(=O)c1cn(CC(=O)Nc2ccc(F)cc2)c2nc(C)ccc2c1=O | i | 0.48
CCc1cc(Sc2nnc(NC(=O)Nc3ccc(Br)cc3)s2)n2ncnc2n1 | i | -0.46

High-throughput results (PubChem)
